AmpC nodet inh – inhibitors of E. coli AmpC beta-lactamase without detergent. P00811. 71,000 compounds, 1.8% hits. Potency, µM (titrated, usually from 28.7 µM), inactives show top-dose activity change, negative = inhibition. AmpC nitrocefin hydrolysis, absorbance 480 nm, no detergent; potencies from a single point are estimates; active = falling curve, for most hits resting on a single point; inconclusive = weak or doubtful change; inactive = flat or rising curve; note: % of control where 0% means no effect; about half of the hits show no inhibition at the top dose; a quarter of the inactives give rising signals
Target sequence (P00811 whole entry, looked up): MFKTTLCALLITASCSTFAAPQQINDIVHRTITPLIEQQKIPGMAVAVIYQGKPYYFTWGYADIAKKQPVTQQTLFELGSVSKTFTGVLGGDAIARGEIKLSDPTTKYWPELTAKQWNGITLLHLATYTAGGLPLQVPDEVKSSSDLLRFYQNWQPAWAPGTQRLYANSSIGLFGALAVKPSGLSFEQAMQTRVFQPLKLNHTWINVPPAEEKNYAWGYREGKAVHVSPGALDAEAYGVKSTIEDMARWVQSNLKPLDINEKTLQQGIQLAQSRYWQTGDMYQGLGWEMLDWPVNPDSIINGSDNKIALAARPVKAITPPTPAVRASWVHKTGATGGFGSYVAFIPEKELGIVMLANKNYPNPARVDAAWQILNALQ
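Enzyme, pH 7.0 phosphate. Compound titrations were pre-incubated with AmpC for 15 min at room temperature before nitrocefin (stock 800 uM) addition; product formation was recorded at 480 nm every 20 s for 4 min.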
* hit, by the source's call; ? = inconclusive; & = joins results of further samples; [ ] = remark or other dose. Potency is the fitted concentration of half-maximal effect. A portion of the library (hit frequency here may not be typical).

smiles,AmpC nodet inh
CN1CCc2ccccc2[C@@H]1Cc1ccccc1NC(=O)c1sc2ccccc2c1Cl,-11.4%[5.75 µM]
Nc1nc(CSc2ncn(-c3ccccc3)n2)cs1,19.9%
Cc1cc(C)c2c(CC(=O)N(CCC#N)Cc3cccnc3)coc2c1,48.4%
CC(NC(=O)c1ccccc1)C(=O)NC1=NCCS1 (stereo not drawn),-10.0%
COCCOc1ccc(C(F)(F)F)cc1Nc1nc2ccccc2o1,76.6%
CCOc1cc(C(=O)N2CCN(c3ccc(C(C)=O)cc3)CC2)cc(OCC)c1OCC,112.0%
CC(C)[C@H](NC(=O)NC1CCCC1)C(=O)O,-2.9%
COc1cccc(/C=N/n2cncn2)c1OCC#N,-4.1%

Continuation:
smiles,AmpC nodet inh
CCOc1ccc(N(CC(=O)NC2CCCCCC2)S(=O)(=O)c2c(C)noc2C)cc1,9.6%
O=C(COC(=O)CCOc1ccccc1)Nc1ccc(Cl)cn1,-15.0%
CCCCn1c(O)c(C(CC)=Nc2ccc(OCC)cc2)c(=O)[nH]c1=O,19.7%
COC(=O)c1c(NC(=O)C2CC2)sc2c1CCCC2,51.1%
CN=C1SC(CC(=O)Nc2cc(Cl)ccc2Cl)C(=O)N1C (stereo not drawn),16.4%
COc1cc2c(=O)n(Cc3ccco3)c(=O)n(CC(=O)c3ccc(Br)cc3)c2cc1OC,106.4%
O=C(c1ccccc1NS(=O)(=O)c1ccc(Br)s1)N1CCCC1,-12.9%
COc1ccc(CC(NC(C)=O)C(=O)NC2CCN(S(=O)(=O)c3ccccc3)CC2)cc1OC (stereo not drawn),30.0%

Carrying on.
smiles,AmpC nodet inh
CC(C)[C@@H]1[C@H]2CC[C@H](C2)[C@H]1N,17.6%&-0.5%
Cc1ccc2c(c1)N(CC(=O)N1CCCCC1c1cccnc1)C(=O)CO2 (stereo not drawn),14.3%
CCC/C=C(\CCC)C(NC(=O)c1ccc(C(F)(F)F)cc1)c1ccc(C(F)(F)F)cc1 (stereo not drawn),-7.5%
Cc1cc(NC(=O)COC(=O)c2cc3c(s2)CCC(C)C3)no1 (stereo not drawn),-20.2%
Cc1ccc2nc(N/N=C\c3cccc(C)n3)cc(C)c2c1,23.6%[5.75 µM]
O=C(NCCCO)c1ccc2[nH]c3ccccc3c2c1,-14.2%
CSc1ccccc1NS(=O)(=O)c1ccc2c(c1)OCCO2,-6.7%
CCOC(=O)c1c(C)[nH]c2ccc3c(c12)CN1CCc2cc(OC)ccc2[C@@H]1O3,21.6%

Further compounds
smiles,AmpC nodet inh
N#Cc1cccc(-c2ccc3ncnc(NCc4ccccc4)c3c2)c1,0.8%
NC1CCC(CC2CCC(N)CC2)CC1 (stereo not drawn),-4.5%
CCOc1ccccc1NC1=NCC(=O)N1Cc1ccc(F)cc1,16.9%
O=C(Nc1nnc(CCN2CCOCC2)s1)C1CCCCC1,?
CCC(=O)n1nc(NCc2ccccc2OC)nc1NCc1ccccc1OC,17.8%
Cc1nn(C(C)C(=O)O)c(=O)c2c1sc1ccccc12 (stereo not drawn),-12.2%
O=C1c2ccccc2CC[C@H]1CNCCc1ccc(O)cc1,13.7%
COc1ccc(NC(=O)c2ccco2)cc1NC(=O)c1c(F)c(F)c(OC)c(F)c1F,-8.3%

Next section
smiles,AmpC nodet inh
CN1C(=O)N(CN2CCCCC2)C2C1N(C)C(=O)N2CN1CCCCC1 (stereo not drawn),-4.8%
Cc1ccc(OCCSc2nnc(NC(=O)c3ccco3)s2)cc1,-15.6%
CCn1c(Cn2nnc(-c3ccccc3)n2)nnc1SCc1ccc(Cl)c(Cl)c1,26.3%
COC(=O)c1c(-c2ccc(F)cc2)csc1NC(=O)c1ccco1,-7.3%
CCN(CC)CCN1c2ccccc2Sc2ccc3ccccc3c21,10.9%[5.75 µM]
Oc1cc2ccccc2cc1-c1n[nH]c(=S)o1,-7.3%
COc1ccccc1-c1cc(C(F)(F)F)nc(S(=O)(=O)CCCC(=O)N2CCCCC2C)n1 (stereo not drawn),83.8%
CCN(Cc1ccccc1)S(=O)(=O)c1nc2nc(C)c(C)c(C)n2n1,46.2%

Additional entries follow:
smiles,AmpC nodet inh
O=C(Cn1cc(C(=O)c2cccs2)c2ccccc21)NCc1ccc2c(c1)OCO2,2µM*[single pt active]
COc1cccc(OC)c1C1=NCC(=O)Nc2c1oc1ccc(Br)cc21,26.2%
CCOC(=O)N1CCN(C(=O)c2cc3c(=O)n(C)c4ccccc4c3n2C)CC1,94.3%
COc1ccc(NC(=O)c2c(-c3ccccc3Cl)noc2C)c(OC)c1,24.2%
COc1cc2c(=O)n(Cc3ccccc3)c(=O)n(CC(=O)NCC3CCCO3)c2cc1OC (stereo not drawn),73.2%
CCCCn1nnc(NC(=O)CC23CC4CC(CC(C4)C2)C3)n1,-9.9%
Clc1ccc(CSc2nnc([C@@H]3CCCN3)o2)cc1,1.1%
CCCc1cc(C(=O)Nc2cc(OC)c(Cl)cc2OC)no1,5.9%

(more compounds)
mol | AmpC nodet inh
O=C(CSc1nc2ccsc2c(=O)n1Cc1ccccc1)NCc1ccco1 | -13.0%
N#Cc1c(F)cccc1N1CCOCC1 | -4.3%
COCCn1c(SCC(=O)N2CCCCC2)nc2ccccc2c1=O | 25.0%
CC1CCN(S(=O)(=O)c2cc(Cl)ccc2Br)CC1 | -3.7%
C=CC1=C(C)C2=NC1=CC1=NC(=CC3=NC(=CC4=NC(=C2)C(C)=C4CCC(=O)O)C(CCC(=O)O)=C3C)C(C=C)=C1C.[Zn] | 78.0%
CCOC(=O)C1=C(C)Nc2ncnn2C1c1ccc2c(c1)OCO2 (stereo not drawn) | 3.3%
CC(=O)c1cnc(Nc2nc(C)c3cccc(C)c3n2)nc1C | -4.8%
Cc1cc(C)n(S(=O)(=O)c2ccc(Cl)c(Cl)c2Cl)n1 | 21.8%
CC1CCCCN1C(=O)Cn1c(=O)oc2ccccc21 (stereo not drawn) | -4.1%
CCNc1ncc2nc(-c3cccs3)c(=O)n(C[C@H]3CCCO3)c2n1 | 11.6%

Next results:
mol | AmpC nodet inh
CCCCC(=O)Nc1ccc(C(N)=O)cc1 | -8.6%
O=C(Nc1cccc(C(F)(F)F)c1)C1CCCN(S(=O)(=O)c2cnc[nH]2)C1 (stereo not drawn) | -2.3%
CCOC(=O)N1CCC(NS(=O)(=O)c2ccc3c(c2)C(C)(C)C(=O)N3C)CC1 | 23.0%
CCC(CC)C(=O)Nc1c2cnn(-c3ccccc3)c2nc(=O)n1-c1ccccc1 | 0.4%
Cc1cc2cc(CN(Cc3cccs3)Cc3nnnn3CC3CCCO3)c(=O)[nH]c2cc1C (stereo not drawn) | 116.9%
Cc1nc(NCc2ccco2)c(C#N)c2c1COC(C)(C)C2 | -4.4%
COc1ccccc1CNc1nc2nc3c(c(=O)n2[nH]1)CCC3 | -3.7%
CC[C@@H](C)[C@H](NS(=O)(=O)c1ccc(C)cc1)C(=O)N1CCC(C(=O)NCC(=O)O)CC1 | 3.8%
COCCn1c(C)cc(C(=O)COC(=O)c2cc3c(s2)CCC3)c1C | 98.5%
COCCCNC(=O)c1ccccc1NS(=O)(=O)c1ccc(C)cc1 | 24.3%

(list continues)
mol | AmpC nodet inh
CN(CC(=O)NCc1ccco1)S(=O)(=O)c1ccc2c(c1)n(C)c(=O)c(=O)n2C | 5.1%
Cc1ccc(SCc2nc(-c3ccccc3)no2)cc1 | -15.0%
COCCNC(=O)c1ccc2ccccc2n1 | 8.5%
O=C(COc1ccccc1)Nc1cccc(-c2nnc(-c3ccccc3)o2)c1 | -2.8%
CN(Cc1ccccc1)Cn1ccnc1 | 0.1%[5.75 µM]
CCCOc1ccc([C@@H]2C3CN(C(=O)OCC)CC=C3C(C#N)=C(N)C2(C#N)C#N)cc1OC (stereo partly drawn) | 59.6%
CCOC1OC2C(CO)OC(n3cnc4c(N)ncnc43)C2O1 (stereo not drawn) | 2.9%
CC1CC(C(F)(F)F)n2ncc(C(=O)O)c2N1 (stereo not drawn) | 6.8%
c1cc2nncn2nc1N1CCCC1 | 4.1%
COCC(=O)N1CCC[C@@]2(CCN(Cc3ccc(C#N)cc3)C2)C1 | -2.8%

Continued.
mol | AmpC nodet inh
COC(=O)c1ccc(Oc2nc3c(c(=O)n(C)c(=O)n3C)n2CCC(C)C)cc1 | 77.2%
CCSc1nnc(NC(=O)CSc2nc3c(c(=O)n2C)SC(C)C3)s1 (stereo not drawn) | 7.8%
CCCS(=O)(=O)c1c(S(=O)(=O)CCC)c2cc(CC)ccn2c1C(=O)OC | 98.8%
CC(C)COc1cccc(C(=O)Nc2ccc(S(=O)(=O)N3CCOCC3)cc2)c1 | 77.5%
CN(Cc1cnc2nc(N)nc(N)c2n1)c1ccc(C(=O)N[C@H](CCC(=O)O)C(=O)O)cc1 | -12.9%[12.8 µM]
Cc1ccc(CNC(=O)C2c3ccccc3C(=O)N(C)C2c2c[nH]c3ccccc23)o1 (stereo not drawn) | 38.0%
COc1ccc(OC)c(C2C(C(=O)c3cccs3)=C(O)C(=O)N2CCN(C)C)c1 (stereo not drawn) | -5.1%
Fc1ccc(Cn2nnnc2CN2CCN(C3CCCCC3)CC2)cc1 | 3.5%
COc1cc(C(Nc2ccccn2)c2ccc3ccc(C)nc3c2O)cc(OC)c1O (stereo not drawn) | 74.2%
CC1CCc2c(nc3ncnn3c2N2CCN(c3ccccc3F)CC2)C1 (stereo not drawn) | 75.9%

(list continues)
mol | AmpC nodet inh
NCC[Se][Se]CCN | 1.6%[5.75 µM]
CC1CCCCC1NC(=O)Cn1ncc2ccccc21 (stereo not drawn) | 1.4%
CCc1nnc(NCC(=O)N2CCc3ccccc32)s1 | -6.2%
Nc1nc(-c2cccc(NS(=O)(=O)c3ccccc3)c2)cs1 | -9.0%
CCc1ccc(OCc2ccc(C(=O)NCc3ccccn3)o2)cc1 | 49.0%
CC(=O)c1c(C)[nH]c(C(=O)NCCN2CCC(C)CC2)c1C | -4.1%
O=C(CC(C(=O)N1CCc2ccccc21)n1ccnc1)N1CCc2ccccc2C1 (stereo not drawn) | 91.5%
COc1cccc(Cn2c(=O)c(-c3cccs3)nc3cnc(Nc4ccccc4)nc32)c1 | -0.9%
O=C(CSc1nnc(COc2ccc(Cl)cc2)o1)N1CCN(c2ccccc2)CC1 | -11.1%
O=C1C2CCCN2C(c2cccnc2)N1c1cccc(Cl)c1 (stereo not drawn) | 3.7%

Next structures follow:
mol | AmpC nodet inh
COc1cccc(-c2nnn(CCC(=O)O)n2)c1 | -1.4%
O=C(Oc1cccc2cccnc12)c1cccs1 | 1.4%
O=C(CSc1ncn(-c2ccccc2)n1)N1CCc2ccccc21 | 7.3%
Cc1ccc(/C(C#N)=C/c2cccc([N+](=O)[O-])c2)cc1 | -3.7%[5.75 µM]
CC(=O)Nc1ccc(NC(C)=O)s1 | -12.3%
COc1ccccc1CC(=N)N1C[C@@H]2C(=O)CCC(c3ccccc3)(c3ccccc3)[C@@H]2C1 | 121.6%
Cc1noc(C)c1CSc1nnc(-c2ccccc2)n1Cc1ccco1 | 23.5%
Cc1cc(Br)ccc1OCc1nc(-c2cccnc2)no1 | 21.7%
COc1cc(C(=O)Nc2ccc3c(c2)OCO3)ccc1-n1cnnn1 | 21.1%
O=[N+]([O-])c1ccccc1N=Nc1c(O)[nH]c2ccc(S(=O)(=O)O)cc12 | -2.0%[5.75 µM]

(more compounds)
mol | AmpC nodet inh
O=C(O)CN(CC(=O)O)CC(=O)O | -3.4%
COc1cc2cc(CN(CCN3CCCC3)C(=O)Nc3ccccc3Cl)c(=O)[nH]c2cc1OC | 70.5%
COc1ccccc1NC(=O)CSc1nc2ccccc2c(=O)n1CCNC(C)=O | 105.2%
Cc1nc(N)nc2ccccc12 | 1.4%[5.75 µM]
CCCCN(C)C(=O)CCCCn1c(=O)[nH]c2cc(OCC)c(OCC)cc2c1=O | 92.2%
COc1cccc(N2CCN(Cc3coc4c(Cl)cc(Cl)cc4c3=O)CC2)c1 | 4.5%
CCN(Cc1ccccc1)C(=O)CSc1nc(C)cc(C)c1C#N | 41.5%
O=C(c1ccco1)N1CCC2(CC1)CN(c1ccccn1)C2 | 1.6%
CC12/C(=N/O)C3C4CC5C3/C(=N/O)C1C5C42 (stereo not drawn) | -2.3%
CCCc1nnc(NC(=O)Cn2c(=O)oc3ccccc32)s1 | -15.5%

(continued)
mol | AmpC nodet inh
CS(=O)(=O)N1CCC2(CCN(c3ccncc3)CC2)CC1 | 62.6%
COc1cc(C)c(C#N)c(OC)n1 | -0.7%
Nc1cccc(OCc2nc(N)nc(N)c2-c2ccc(Cl)cc2)c1 | 5.0%[5.75 µM]
O=C(OCc1nnc(-c2ccccc2)o1)c1ccc2ccccc2n1 | 21.0%
Cc1nc2ncnn2c(N2CCCC(C(=O)Nc3ccc4c(c3)CCC4)C2)c1C (stereo not drawn) | 129.4%
O=C(Cn1cnc2c(nnn2Cc2ccccc2F)c1=O)NCC1CCCO1 (stereo not drawn) | 0.1%
Cc1cccc(NC(=O)c2cc(NC(=O)C3CC=CCC3C(=O)O)ccc2N2CCOCC2)c1 (stereo not drawn) | -9.6%
COCCNC(=O)[C@@]1(C)C=C[C@@H](Cc2ccccc2)N1C(=O)c1ccccc1 | 74.4%
CCOc1ccc(NC(=O)COc2nsnc2N2CCCCC2)cc1 | -3.3%
NCC(=O)NC1(C(=O)O)CCCC1 | 2.5%[5.75 µM]
O=C(NCc1ccc(Cl)cc1)c1noc2c1CCCC2 | -11.3%
N#Cc1nc(-c2cccc3ccccc23)oc1NCCN1CCOCC1 | 142.9%
O=C(CC1CCCCC1)NCCCN1CCOCC1 | -1.6%

Part of the list above, field by field.
SMILES: O=C(NCCCO)c1ccc2[nH]c3ccccc3c2c1
  AmpC nodet inh: -14.2%

SMILES: CSc1ccccc1NS(=O)(=O)c1ccc2c(c1)OCCO2
  AmpC nodet inh: -6.7%

SMILES: CCOC(=O)c1c(C)[nH]c2ccc3c(c12)CN1CCc2cc(OC)ccc2[C@@H]1O3
  AmpC nodet inh: 21.6%

SMILES: N#Cc1cccc(-c2ccc3ncnc(NCc4ccccc4)c3c2)c1
  AmpC nodet inh: 0.8%

Screening data (PubChem)
